# UUG fidelity: alters start codon recognition fidelity in yeast | actives 0.13% (n = 350,000) | activity score, % at 18.7 µM | AID 602363 | S. cerevisiae UUG-firefly luciferase reporter, luminescence/redox ratio;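 active = replicate mean at a twofold rise or more, about +100% in these data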;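 also: firefly luciferase made from a UUG start codon reports start codon fidelity; reporter light over untreated wells divided by growth signal over untreated wells; some hits fall short of that in this replicate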
# eIF4H inh: inhibitors of RNA binding by human eIF4H. Q15056. eIF4H fluorescence polarization binding assay. inhibition, % at 35 µM. actives 0.94% (n = 290,000). AID 2012;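 active = 50% or more with normal probe brightness, or confirmed in later tests; about a fifth of its hits are not listed in these tables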;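 also: calls also rest on retests at 20 µM and on dose response follow-up; 0% = protein and probe with vehicle and 100% = probe without protein; strong numbers were not always called active; many hits fall short of the cut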
# CSC inhib: cancer stem cell inhibition; cancer stem cell-like cells viability, luminescence; inhibition, % at 7.5 µM; actives 1.1% (n = 300,000); AID 2717;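 active = mean at 75% or more and at least half the replicates too; tested in HMLE shEcad cells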;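 also: 0% = median of negative and 100% = median of positive control wells; the first replicate is given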
# MT1-MMP act inh: inhibitors of human MT1-MMP activation; GFP/RFP ratio change, % at 20 µM; P50281; HT1080 RFP-PRO-GFP cells, GFP/RFP ratio fluorescence, overnight; percent of plate control window, DMSO zero; actives 0.061% (n = 360,000); AID 651647;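 active = GFP/RFP ratio change of at least 30% with cell ATP level not reduced by more than half and red fluorescence within 50% of control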; also: strong numbers were not always called active
#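 Test system: HT1080 cells expressing an RFP-PRO-GFP fluorescent reporter construct / Compound dosing: single-point 20 µM compound, 1% DMSO / Schedule: cells overnight before dosing, compound overnight, 37 °C, 5% CO2 / Evaluation: GFP/RFP fluorescence ratio / Control set: DMSO and RFP-L50D-GFP cell wells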
# Rce1 inhib: yeast Ras-converting enzyme inhibition; AID 2563; calls only; yeast membranes, quenched prenylated peptide cleavage fluorescence; actives 0.27% (n = 290,000); Q03530;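 active = fall in fluorescence gain of 50% or more versus controls, with final raw signal at or below 3038400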;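 also: plate controls were neutral control wells for no effect and wells lacking membranes for full effect; tested at 10 µM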
# Target sequence (Q03530 whole entry, looked up): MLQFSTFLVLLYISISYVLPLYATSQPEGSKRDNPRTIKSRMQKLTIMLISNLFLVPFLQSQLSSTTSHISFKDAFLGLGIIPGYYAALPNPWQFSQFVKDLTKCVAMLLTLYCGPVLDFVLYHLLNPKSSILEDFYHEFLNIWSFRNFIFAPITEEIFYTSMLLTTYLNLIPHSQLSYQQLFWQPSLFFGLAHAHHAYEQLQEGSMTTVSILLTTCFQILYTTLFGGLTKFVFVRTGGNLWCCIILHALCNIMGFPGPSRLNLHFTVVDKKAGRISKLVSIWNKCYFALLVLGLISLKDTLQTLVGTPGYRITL
# Env fusion inh: blocks HIV Env-driven cell-cell fusion | inhibition, % at 12.3 µM | actives 1.1% (n = 360,000) | HeLa-JRFL Env/CEM21 cell fusion, luciferase;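 active = mean replicate inhibition score of at least 50 and every replicate individually at or above 50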;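 also: 0% = plate neutral controls and 100% = maraviroc near 300 nM; one replicate is shown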
# PABP FP inh: PABP-poly(A) binding inhibition. PABP-poly(A) RNA binding, fluorescence polarization. inhibition, % at 35 µM. actives 1% (n = 290,000);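 active = 50% or more with normal probe brightness, or confirmed in later tests; about a fifth of its hits are not listed in these tables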;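 also: calls also rest on retests at 20 µM and on dose response follow-up; controls were probe without protein and protein plus probe with vehicle; some compounds called inactive have numbers as strong as hits; many hits fall short of the cut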
# Target sequence (P11940 whole entry, looked up): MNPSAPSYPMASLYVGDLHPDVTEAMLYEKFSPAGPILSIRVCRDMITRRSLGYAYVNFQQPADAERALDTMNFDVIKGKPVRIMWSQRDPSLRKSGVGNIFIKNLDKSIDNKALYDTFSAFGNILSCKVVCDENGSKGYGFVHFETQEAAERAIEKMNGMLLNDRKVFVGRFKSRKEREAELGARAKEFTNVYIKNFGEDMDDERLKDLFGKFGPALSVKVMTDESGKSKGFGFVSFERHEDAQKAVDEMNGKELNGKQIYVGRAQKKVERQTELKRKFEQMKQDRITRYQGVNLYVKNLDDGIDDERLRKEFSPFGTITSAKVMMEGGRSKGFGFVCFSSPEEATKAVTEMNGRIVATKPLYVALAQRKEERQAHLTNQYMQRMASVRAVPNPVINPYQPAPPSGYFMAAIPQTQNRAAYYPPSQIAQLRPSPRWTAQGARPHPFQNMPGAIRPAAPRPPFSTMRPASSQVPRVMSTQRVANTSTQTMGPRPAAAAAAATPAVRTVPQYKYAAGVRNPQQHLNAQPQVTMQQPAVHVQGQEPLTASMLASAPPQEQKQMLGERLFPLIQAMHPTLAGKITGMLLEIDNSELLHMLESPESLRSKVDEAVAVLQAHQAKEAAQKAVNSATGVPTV
# eIF4H inh retest: further read-out of eIF4H inh, marked with its call; inhibition, %; compound at 20 µM; confirmation average;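 mean of two retest wells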
# PABP FP inh retest: recorded beside PABP FP inh, whose call it bears; inhibition, %; compound at 20 µM; confirmation repeats;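 mean of two retest wells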
# MT1-MMP act inh RFP: also measured in MT1-MMP act inh; calls as there; RFP signal change, %; measured here: RFP expression control read;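 0 = vehicle wells; hits needed this value within 50% of zero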
# * = called active by the depositor; i = inactive; / = no result given.
SMILES,UUG fidelity,eIF4H inh,CSC inhib,MT1-MMP act inh,MT1-MMP act inh RFP,Rce1 inhib,Env fusion inh,PABP FP inh,others
Cc1ccc(NS(=O)(=O)c2cccc(C(=O)NCCc3c[nH]c4ccccc34)c2)c(C)c1,/,-10,/,-2,-8,i,25,121,eIF4H inh retest=-5;PABP FP inh retest=7
O=C1c2ccccc2C(=O)N1CN(C(=O)c1ccccc1)c1ccc(O)cc1,/,0,6,-1,3,i,-2,-2,
CC1CCCC(C)N1CCNC(=O)CCn1nc(-c2ccccc2)ccc1=O (stereo not given),/,12,/,2,5,i,7,15,
CCOC(=O)c1c(C)[nH]c(C)c1S(=O)(=O)N1CCN(C(=O)c2ccco2)CC1,5,10,-15,0,1,i,0,9,
O=C(Nc1ccc(N2CCCC(O)C2)cc1)c1snc2c(=O)[nH]cnc12 (stereo not given),-32,5,-7,17,0,i,/,-8,
Cc1nn(-c2ccccc2)c(Cl)c1/C=C1\SC(=S)N(C)C1=O,-9,-1,16,-7,-6,i,-20,2,
COc1cc(NC(=O)COc2ccc(C)c(C)c2)ccc1NC(=O)c1ccco1,-4,-10,4,1,1,i,-7,-4,
CS(=O)(=O)c1nc(-c2ccccc2)c(-c2ccccc2)[nH]1,/,-1,-10,2,3,i,/,15,
Cc1cccc(NC(=O)C[n+]2cccc(C)c2)c1,-7,1,-3,-1,6,i,0,2,
Cc1noc(C)c1COc1ccc(C(=O)OCC(=O)Nc2cccc(S(=O)(=O)N3CCOCC3)c2)cc1,/,-1,-9,0,7,i,36,3,
COCCN(C(=O)CCC(=O)Nc1nccs1)C(C(=O)NC(C)(C)C)c1ccc(F)cc1 (stereo not given),0,-3,-6,1,4,i,-2,-1,
Cc1ccc(Nc2nc3ccccc3n3nnnc23)cc1,4,13,-4,-3,0,i,-219,-17,
O=C(Nc1cccc(Cl)c1)c1cnn2cccnc12,-20,-1,6,0,1,i,-162,-2,
COc1cc(C2SCC(=O)N2CCCN(C)C)cc(OC)c1OC (stereo not given),/,7,-4,-3,4,i,/,3,
CCN(CC(=O)Nc1cc(Cl)ccc1C)C(=O)c1cc(S(=O)(=O)N2CCCCCC2)ccc1OC,-19,/,-5,5,-3,i,26,/,
COc1ccc(C)cc1Nc1cc(C)nc2ncnn12,-22,10,-25,3,0,i,-13,8,
CCc1cccc(NC(=O)c2cc(S(=O)(=O)N(C)C)ccc2N2CCCC2)c1,-3,-14,3,-3,-6,i,30,46,
COc1ccc(-c2nc3ccccc3nc2-c2ccc(OC)c(OC)c2)cc1OC,-3,1,-5,-5,0,i,6,-4,
O=C1c2ccccc2C(=O)N1c1ccc(Cl)cc1,/,-2,-4,/,/,/,/,1,
CC(C)c1ccc(N(C(=O)CNC(=O)c2ccco2)C(C(=O)NC2CCCC2)c2ccncc2)cc1 (stereo not given),-36,-12,5,-2,-1,i,12,1,
COC(=O)C(NC(=O)c1ccccc1)(Nc1cc(C)cc(C)n1)C(F)(F)F (stereo not given),-13,4,2,0,2,i,30,17,
COc1ccc(CCNC(=O)c2sc3nc4n(c(=O)c3c2C)CCC4)cc1,-4,/,-9,-2,-1,i,/,/,
O=C1c2ccccc2-c2cccc(NS(=O)(=O)c3ccc(C(F)(F)F)cc3)c21,-24,24,38,-74,5,i,-8,-3,
Cc1ccc(NC(=O)c2c(Cl)n(C)c3ccccc23)cc1,/,9,0,0,0,i,/,6,
c1ccc2c(c1)ncn2Cc1nnc2sc(-c3ccncc3)nn12,4,2,-1,1,6,i,-40,9,

# Next part, starting with the last 2 of the part before.
SMILES,UUG fidelity,eIF4H inh,CSC inhib,MT1-MMP act inh,MT1-MMP act inh RFP,Rce1 inhib,Env fusion inh,PABP FP inh,others
Cc1ccc(NC(=O)c2c(Cl)n(C)c3ccccc23)cc1,/,9,0,0,0,i,/,6,
c1ccc2c(c1)ncn2Cc1nnc2sc(-c3ccncc3)nn12,4,2,-1,1,6,i,-40,9,
Cc1ccc(/C=C/C(=O)Nc2ccc(S(=O)(=O)Nc3ncccn3)cc2)cc1,/,-5,-2,-2,-4,i,2,6,
Cc1cc(C)nc(NC(=O)Nc2ccc3c(c2)OCO3)c1,-20,4,/,4,3,i,-61,-12,
C=C[C@]12CC[C@H](OC(C)=O)CC1=CCC1C2CC[C@@]2(C)C1CCC21OCCO1 (stereo not given in full),-8,/,/,3,0,/,-16,/,
Cc1ccc(N2CC(C(=O)N3CCN(C(=O)c4ccco4)CC3)CC2=O)cc1 (stereo not given),-2,-6,/,0,-1,i,/,-5,
CC1CCCCC1NC(=O)CN1CCN(Cc2ccccc2Cl)C1=O (stereo not given),/,-16,-1,4,4,i,-3,2,
CC(=O)C[C@@H](O)CC(=O)[C@@H]1OC(=O)CCCCC/C=C/Cc2ccccc21,-25,/,/,-14,-1,/,-10,/,
Cn1c(CCNC(=O)c2ccco2)nc2cc(NC(=O)c3ccco3)ccc21,-32,-3,-6,-4,-1,i,-67,-2,
CCOc1ccccc1NC(=O)CN(c1ccc(C)cc1)S(=O)(=O)c1c(C)noc1C,-10,-5,/,-14,-21,/,-11,-6,
N#C/C(=C\c1ccc(O)c(Br)c1)C(=O)NCc1ccccc1,/,8,/,4,3,i,7,2,
COc1ccc(-c2ocnc2C(=O)NCc2nn(-c3ccccc3)nc2C)cc1,/,-11,14,0,-30,i,-4,2,
CCC1(c2ccc(F)cc2)NC(=O)N(CC(=O)Nc2ccc(-c3nc4ccc(C)cc4s3)cc2)C1=O (stereo not given),-32,-17,22,4,-2,i,-94,3,
O=C(NCC(=O)N1CCN(C(=O)c2ccco2)CC1)c1cccc(Cl)c1,-19,/,-14,0,0,/,/,/,
COc1cccc(C(=O)Nn2c(C)nnc2-n2nc(C)cc2C)c1,-11,-4,-16,6,1,i,-46,-5,
O=[N+]([O-])c1ccc(O)c(/C=N\N=C2c3ccccc3-c3ccccc32)c1,/,-7,18,-10,-33,i,/,7,
Cc1cccc(NC(=O)CSCC(=O)OCc2ccccn2)c1,-13,/,2,0,5,i,-26,/,
CCNc1c2c(nc3ccccc13)CC(C)(C)CC2=O,-10,-1,8,-2,-2,i,/,1,
O=C(Nc1ccc(OC(F)(F)C(F)F)c(NC(=O)c2cccc(F)c2)c1)c1cccc(F)c1,/,-4,-6,2,1,i,/,-3,
COc1ccc(NC(=O)CC2SC(N3CCOCC3)=NC2=O)c(OC)c1 (stereo not given),-13,/,-10,-1,-1,/,/,/,
COc1cccc(OC)c1C(=O)Nc1ccccc1NC(=O)c1c(OC)cccc1OC,-11,-12,-19,-1,1,i,-5,4,
CCOC(=O)c1c(NC(=O)CSc2ncn[nH]2)sc(C(C)=O)c1C,-12,-5,-3,2,-4,/,-32,2,
COc1cc(/C=C(\C#N)C(=O)Nc2ccc3ccccc3c2)c([N+](=O)[O-])cc1OC,/,93,0,-3,-9,i,-47,-2.3*,eIF4H inh retest=23;PABP FP inh retest=70*
COCCc1ccc(OC2(C)CCN(Cc3ccc(OC)c4ccccc34)C2)cc1 (stereo not given),-17,/,/,5,8,/,-6,/,
O=C(N/N=C\c1cccnc1)c1ccccc1O,-27,6,-8,-2,1,i,-1,7,
Cc1cccc(NC(=O)c2ccc(COc3cccc4ccccc34)o2)n1,/,3,/,-1,-5,i,/,-3,
CC(Sc1ccccc1)C(=O)Nc1ccc(N2CCOCC2)cc1 (stereo not given),7,0,-3,0,-6,i,-1,-16,
# More structures follow.
SMILES,UUG fidelity,eIF4H inh,CSC inhib,MT1-MMP act inh,MT1-MMP act inh RFP,Rce1 inhib,Env fusion inh,PABP FP inh,others
COc1ccc(C)cc1NC(=O)C1CCN(S(=O)(=O)c2cccc3nonc23)CC1,-13,-8,-10,-4,-1,/,2,-8,
CCOC(=O)CSc1nnc(CSc2nc(C)cc(C)n2)n1Cc1ccco1,-23,11,-3,-6,1,i,-380,21,
O=C(Cn1c(=O)sc2ccccc21)NCCOc1ccccc1F,-20,-1,2,5,6,i,-241,4,
CCN(CC(=O)Nc1c(F)cccc1F)C(=O)Cc1c(C)nc2ccccc2c1C,-15,/,-5,0,-2,/,0,/,
CC1(C)CC(=O)C2=C(C1)OC(N)=C(C#N)C2C1CC=CCC1 (stereo not given),-6,-4,8,-2,-1,i,/,0,
Cc1ccc(NC(=O)c2ccc3nsnc3c2)c(Cl)c1,-26,4,-2,-1,-2,i,-51,-4,
O=C(Nc1cccnc1)c1cc(-c2ccc(Cl)cc2Cl)on1,-17,-12,/,0,5,i,-67,2,
O=C(CCC(=O)N1CCCC1)N1CCCC1,-6,-7,0,-4,0,i,-7,-2,
O=C(Cn1cnc([N+](=O)[O-])n1)N/N=C/c1ccccc1O,/,3,44,-3,-3,i,/,-4,
Oc1ccc(/C=N/NC(=S)NCc2ccco2)cc1,/,-14,-3,0,4,i,/,-7,
C[n+]1nc(Nc2ccccc2)sc1-c1ccc(O)cc1,-2,0,7,-3,-10,i,20,-8,
COc1ccc([C@H]2CC(=O)C=C(c3ccc(C)c([N+](=O)[O-])c3)C2)cc1,-1,/,4,1,-1,/,-23,/,
N#CC1=C(N)N2C(=C(C#N)C1c1ccc(Br)cc1)Nc1ccccc12 (stereo not given),/,9,114*,/,/,i,56*,-1,

# Compounds listed so far that have an aryl methoxy group (14):
SMILES,UUG fidelity,eIF4H inh,CSC inhib,MT1-MMP act inh,MT1-MMP act inh RFP,Rce1 inhib,Env fusion inh,PABP FP inh,others
COc1cc(NC(=O)COc2ccc(C)c(C)c2)ccc1NC(=O)c1ccco1,-4,-10,4,1,1,i,-7,-4,
COc1cc(C2SCC(=O)N2CCCN(C)C)cc(OC)c1OC (stereo not given),/,7,-4,-3,4,i,/,3,
CCN(CC(=O)Nc1cc(Cl)ccc1C)C(=O)c1cc(S(=O)(=O)N2CCCCCC2)ccc1OC,-19,/,-5,5,-3,i,26,/,
COc1ccc(C)cc1Nc1cc(C)nc2ncnn12,-22,10,-25,3,0,i,-13,8,
COc1ccc(-c2nc3ccccc3nc2-c2ccc(OC)c(OC)c2)cc1OC,-3,1,-5,-5,0,i,6,-4,
COc1ccc(CCNC(=O)c2sc3nc4n(c(=O)c3c2C)CCC4)cc1,-4,/,-9,-2,-1,i,/,/,
COc1ccc(-c2ocnc2C(=O)NCc2nn(-c3ccccc3)nc2C)cc1,/,-11,14,0,-30,i,-4,2,
COc1cccc(C(=O)Nn2c(C)nnc2-n2nc(C)cc2C)c1,-11,-4,-16,6,1,i,-46,-5,
COc1ccc(NC(=O)CC2SC(N3CCOCC3)=NC2=O)c(OC)c1 (stereo not given),-13,/,-10,-1,-1,/,/,/,
COc1cccc(OC)c1C(=O)Nc1ccccc1NC(=O)c1c(OC)cccc1OC,-11,-12,-19,-1,1,i,-5,4,
COc1cc(/C=C(\C#N)C(=O)Nc2ccc3ccccc3c2)c([N+](=O)[O-])cc1OC,/,93,0,-3,-9,i,-47,-2.3*,eIF4H inh retest=23;PABP FP inh retest=70*
COCCc1ccc(OC2(C)CCN(Cc3ccc(OC)c4ccccc34)C2)cc1 (stereo not given),-17,/,/,5,8,/,-6,/,
COc1ccc(C)cc1NC(=O)C1CCN(S(=O)(=O)c2cccc3nonc23)CC1,-13,-8,-10,-4,-1,/,2,-8,
COc1ccc([C@H]2CC(=O)C=C(c3ccc(C)c([N+](=O)[O-])c3)C2)cc1,-1,/,4,1,-1,/,-23,/,

# An excerpt (hit frequency here may not be typical).
